# Compound activity from PubChem.
# VDR inh – Inhibitors of the vitamin D receptor (VDR): qHTS. Vitamin D3 receptor (Homo sapiens), P11473. VDR-SRC2-3 peptide fluorescence polarization, 2 h. Potency, µM, for inactives: max response, negative = inhibition, most hits filed as inhibitors. 0.93% of 400,000 active. AID 504847, 2011; active = well fitted inhibition curve with a large enough effect; inconclusive = small, poorly fitted or top-dose-only effect, or another doubt; inactive = no such curve, though single readings can be large or run the other way; also: series mostly up to about 120 µM
# Target sequence (P11473 whole entry, looked up): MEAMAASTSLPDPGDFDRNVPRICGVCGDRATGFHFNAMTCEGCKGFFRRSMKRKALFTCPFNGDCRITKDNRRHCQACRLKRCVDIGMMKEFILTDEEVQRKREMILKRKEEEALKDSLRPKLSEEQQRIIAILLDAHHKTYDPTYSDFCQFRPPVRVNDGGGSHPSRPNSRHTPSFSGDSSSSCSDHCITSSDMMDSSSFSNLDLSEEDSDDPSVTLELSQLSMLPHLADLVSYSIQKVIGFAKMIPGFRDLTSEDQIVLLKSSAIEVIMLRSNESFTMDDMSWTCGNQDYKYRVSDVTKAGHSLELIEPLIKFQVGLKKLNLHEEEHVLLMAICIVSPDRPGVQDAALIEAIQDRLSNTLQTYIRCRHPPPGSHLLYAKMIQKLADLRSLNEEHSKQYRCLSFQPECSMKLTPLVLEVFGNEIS
#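 After 23 nl compound addition and a short centrifugation, plates sat for 2 hours at ambient temperature; polarization of fluorescence then indicated loss of VDR binding to peptide SRC2-3.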
# Starred values were filed as active, the others as inactive; ? = inconclusive; & = joins results of further samples; [ ] = remark or other dose. % is scaled to controls: 0 for no effect and ±100 for the full control effect; potency is read from the fitted curve at half-maximal effect. Only part of the results is shown. The share of hits here may be higher or lower than overall.
SMILES,VDR inh
Cc1ccc(NC(=O)CSc2nnc(CNC(=O)c3ccccc3F)o2)cc1Cl,-15%
Cc1ccc(CNC(=O)c2oc3c(c2C)-c2nn(Cc4ccc(Cl)cc4)cc2CC3)cc1,3%
Cc1cc(NC(=S)NC(=O)C2CC2)ccc1Br,14%
O=C(CCC(=O)n1ncc2ccccc21)NCc1ccccc1Cl,-17%
COc1ccc(CN(C)Cc2nc3cc(OC)c(OC)cc3c(=O)[nH]2)c(OC)c1,1%
O=C(/C=C/c1ccccc1)Nc1ccc(C(=O)N2CCCCC2)cc1,9%
CCC1=NN(C(=O)c2ccc([N+](=O)[O-])cc2)C(O)(c2ccccc2)C1 (configuration not stated),-5%
Cc1ccc(NC(=O)CC2NCCNC2=O)cc1Cl (configuration not stated),1%
CC1CCC/C(=N/Nc2nc3ccccc3s2)C1 (configuration not stated),-6%
COc1ccc(-c2cc(C3C4C=CCCC4(C)C(=O)N3Cc3ccccc3)ccc2F)cc1OC (configuration not stated),-16%
Cc1nn(CCOc2ccccc2)c(=O)n1-c1ccc(F)cc1,-5%
COc1ccc(NC(=O)N2CCCC(C(=O)Nc3cccc(C)c3C)C2)cc1 (configuration not stated),-2%
COCCCN(C(=O)Cc1coc2cc(C)c(C)cc12)c1c(N)n(Cc2ccccc2)c(=O)[nH]c1=O,-4%
Cc1cc(C(=O)N/N=C/c2cc(Br)c(Br)o2)n[nH]1,?
CCCC1C(=O)N2C(N(C)C)=Nc3ccc(C)cc3N2C1=O (configuration not stated),-8%
Cc1cc(C)cc(OC(C)C(=O)Nc2ccc3c(c2)n(C)c(=O)n3C)c1 (configuration not stated),-4%
Cc1ccc(C)c(OC(=O)CSc2nnc(-c3cccs3)o2)c1,0%
CCn1cc(CCC(=O)NCCN2CCOCC2)c2ccccc21,3%
COc1ccc(C(=O)CN2C(=O)c3ccccc3S2(=O)=O)cc1,13%
Cn1cnc(S(=O)(=O)N2CCN(c3ccc(Cl)cc3)CC2)c1,2%

# 5 compounds already listed, arranged by their value in VDR inh, smallest number first:
SMILES,VDR inh
CCCC1C(=O)N2C(N(C)C)=Nc3ccc(C)cc3N2C1=O (configuration not stated),-8%
Cc1nn(CCOc2ccccc2)c(=O)n1-c1ccc(F)cc1,-5%
COCCCN(C(=O)Cc1coc2cc(C)c(C)cc12)c1c(N)n(Cc2ccccc2)c(=O)[nH]c1=O,-4%
Cc1ccc(C)c(OC(=O)CSc2nnc(-c3cccs3)o2)c1,0%
Cc1cc(NC(=S)NC(=O)C2CC2)ccc1Br,14%

# Retrieved by structure from above, 2 records:
SMILES,VDR inh
Cc1ccc(C)c(OC(=O)CSc2nnc(-c3cccs3)o2)c1,0%
COCCCN(C(=O)Cc1coc2cc(C)c(C)cc12)c1c(N)n(Cc2ccccc2)c(=O)[nH]c1=O,-4%

# Later entries
SMILES,VDR inh
O=C(CCl)NN1C(=O)NC(c2ccccc2)(c2ccccc2)C1=O,10%
Cc1noc(C)c1CSc1nnc(-c2ccccc2)n1Cc1ccco1,-21%
O=C(NNC1CC(=O)N(c2ccccc2)C1=O)c1ccc(COc2ccccc2Cl)o1 (configuration not stated),-22%
Cc1csc(NC(=O)CSc2nc3nc(C)cc(C)n3n2)n1,-16%
Cc1cc(Br)ccc1OCc1nc(-c2cccnc2)no1,-5%
CCOC(=O)c1c(NC(=O)CSc2nncs2)sc(C)c1C,-5%
COc1cc(C(=O)Nc2ccc3c(c2)OCO3)ccc1-n1cnnn1,15%
C=CCn1c(SCC(=O)NC2CCCC2)nnc1-c1ccncc1,2%
CCOC(=O)c1sc(-c2ccccc2)cc1NC(=O)c1ccc(S(=O)(=O)N(CCOC)CCOC)cc1,-3%
CCCCN(C)C(=O)CCCCn1c(=O)[nH]c2cc(OCC)c(OCC)cc2c1=O,1%
NC(=O)CC(NC(=O)c1ccccc1)c1ccc(NCc2ccc(F)cc2)c([N+](=O)[O-])c1 (configuration not stated),-4%
CCc1ccc(NC(=O)Cn2c(=O)c(-c3ccccc3NC(C)=O)nc3ccccc32)cc1,9%
COc1ccccc1C(=O)COC(=O)c1ccc(Cl)nc1,-2%
Clc1ccc(-c2cc3ccccc3nc2N2CCCC2)cc1,4%
CCCCCC(=O)Nc1ccc(S(=O)(=O)Nc2ccc(Cl)nn2)cc1,-11%
CCOC(=O)C1=C(CS(=O)(=O)c2ccc(F)cc2)NC(=O)NC1c1cc(OC)c(O)c(OC)c1 (configuration not stated),1%
Cc1cc(OC(C)C(=O)NCC(O)c2ccccc2)c2c(C)cc(=O)oc2c1 (configuration not stated),-2%
CNC(=O)C1CC(=O)N(c2ccc(OCC(=O)Nc3ccc(OC)cc3)cc2)C1 (configuration not stated),9%
Cc1cccc(C)c1NC(=O)C1CCCN1S(=O)(=O)c1ccccc1 (configuration not stated),-22%&7%
CCCOc1ccc(CNC(=O)C(C)n2nc(C)n3c(cc4occc43)c2=O)cc1 (configuration not stated),9%
Nn1c(Cc2ccccc2)nc2ccccc2c1=O,-6%
CC(C)(C)CC(C)(C)NCC(O)COc1ccc2c(c1)CCC2 (configuration not stated),-3%
CCOC(=O)c1cccc(NC(=O)CC(c2ccc(F)cc2)N2Cc3ccccc3C2=O)c1 (configuration not stated),22%
Cc1ccc(NC(=O)c2nc(S(C)(=O)=O)ncc2N(Cc2ccco2)Cc2ccccc2F)c(C)c1,5%
O=C1Nc2ccccc2C1=Nc1ccc(Br)cc1,22µM*
O=C(Nc1c(C(=O)N2CCN(c3ccccc3F)CC2)oc2ccccc12)c1ccc(Br)o1,7%
COc1ccccc1NC(=O)CSc1nc2ccccc2c(=O)n1CCNC(C)=O,9%
COc1cc2cc(CN(CCN3CCCC3)C(=O)Nc3ccccc3Cl)c(=O)[nH]c2cc1OC,-8%
Cc1ccc2c(c1)c1c3n2CCCNC3CCC1 (configuration not stated),21%
Cc1cc(OC(C)C(=O)N(Cc2ccco2)Cc2ccccc2F)cc(C)c1Cl (configuration not stated),14%
CCCCC(=O)NCCNC(=O)c1cc(OCC(F)(F)F)ccc1OCC(F)(F)F,-3%
CCCCC/C=C/C1=CC(=O)C[C@H](c2ccc(OC)cc2)C1,-25%
C/C(=N\Nc1ncc(Cl)cc1Cl)c1ccccn1,?
O=C(CSc1nnc(COc2ccc(Cl)cc2)o1)N1CCN(c2ccccc2)CC1,?
COC1=NC2=NCCN2C(OC)=N1,17%
COc1cccc(-c2nnn(CCC(=O)O)n2)c1,-3%
NC(=O)c1ccc(C(=O)N/N=C(/Cc2ccccc2)c2ccccc2)cc1,4%
Cc1noc(C)c1CSCC(=O)Nc1cc(C(F)(F)F)ccc1N1CCOCC1,?
C=CCOc1ccc(CC(=O)O)cc1Cl,-2%&-4%
Cc1ccccc1NC(=O)Cn1c(=O)n(CCC(=O)N2CCc3ccccc3C2)c(=O)c2ccccc21,-5%
O=C(Oc1cccc2cccnc12)c1cccs1,-12%
CCN1CCN(c2ncc3c(n2)CCN(Cc2sccc2C)C3)CC1,9%
COc1ccc2c3c(cccc13)N(C)N=C2C,-9%
Cc1ccc(NC(=O)c2sccc2-n2cccc2)c(Cl)c1,-15%
O=C(NC(=O)c1ccccc1)OCCN1C(=O)c2ccccc2C1=O,8%
O=[N+]([O-])c1ccc(Nc2ccc(Cl)cc2)nc1,5%
O=C(CSc1ncn(-c2ccccc2)n1)N1CCc2ccccc21,-9%
CC(C)C[C@H](NC(=O)CNC(=O)[C@H](C)NC(=O)[C@H](CC(C)C)NC(=O)[C@H](CCCNC(=N)N)NC(=O)[C@H](Cc1cnc[nH]1)NC(=O)[C@@H](NC(=O)[C@@H](NC(=O)[C@@H]1CSSC[C@H](NC(=O)[C@@H](N)CO)C(=O)N[C@@H](CC(N)=O)C(=O)N[C@@H]([C@@H](C)O)C(=O)N[C@@H](C)C(=O)N[C@@H]([C@@H](C)O)C(=O)N1)C(C)C)[C@@H](C)O)C(=O)N[C@@H](CC(C)C)C(=O)N[C@@H](CO)C(=O)N[C@@H](CCCNC(=N)N)C(=O)N[C@@H](CO)C(=O)NCC(=O)NCC(=O)N[C@H](C(=O)N[C@H](C(=O)N[C@@H](CCCCN)C(=O)N[C@@H](CC(=O)O)C(=O)N[C@@H](CC(N)=O)C(=O)N[C@@H](Cc1ccccc1)C(=O)N[C@H](C(=O)N1CCC[C@H]1C(=O)N[C@H](C(=O)N[C@@H](CC(N)=O)C(=O)N[C@H](C(=O)NCC(=O)N[C@@H](CO)C(=O)N[C@@H](CCCCN)C(=O)N[C@@H](C)C(=O)N[C@@H](Cc1ccccc1)C(N)=O)C(C)C)[C@@H](C)O)C(C)C)C(C)C)C(C)C,15%
O=C(CN1CCC(NC(=O)Cc2ccccc2)CC1)Nc1ccccc1Br,-3%
Cc1ccc(NC(=O)CSc2nc3n[nH]c(C)c3c(=N)n2-c2ccccc2C)cc1C,5%
COc1ccc(N2CCN(C(=S)Nc3cccc(OC)c3)CC2)cc1,9%
O=C(NC(=S)NCCCN1CCOCC1)c1cccc2ccccc12,9%
Fc1ccc(/C=N\Nc2cccc(F)c2)cc1,2%
Cc1ccc(CNC(=O)C2CCCN2C(=O)Nc2cccc(Cl)c2)cc1 (configuration not stated),10%
CCCCOc1ccc(C2C(=O)N(C3CCCCC3)CC(=O)N2CCCC)cc1 (configuration not stated),9%
Cc1ccc(NC(=O)CCCn2c(=S)[nH]c3ccsc3c2=O)cc1C,-21%
Cc1ccc(C(=O)N/C(=C/c2cccs2)C(=O)NCCCn2ccnc2)cc1,-2%
C/C=C/C(O)c1ccc2ccccc2c1 (configuration not stated),5%
CC(=O)Nc1ccc(NC(C)=O)s1,-12%
CC1CCCN(C2=C(NS(=O)(=O)c3ccc(Br)cc3)C(=O)c3ccccc3C2=O)C1 (configuration not stated),-22%

# Grouped by structure, those above containing a CF3 group (two)
SMILES,VDR inh
CCCCC(=O)NCCNC(=O)c1cc(OCC(F)(F)F)ccc1OCC(F)(F)F,-3%
Cc1noc(C)c1CSCC(=O)Nc1cc(C(F)(F)F)ccc1N1CCOCC1,?

# Other structures
SMILES,VDR inh
O=C(c1ccco1)N1CCN(S(=O)(=O)/C=C/c2ccccc2)CC1,-15%
COc1cccc(OC)c1NC(=O)Cn1nc(-c2ccc3c(c2)OCCO3)ccc1=O,-7%
COc1ccc(C(=O)CC(=O)C(=O)Nc2cccc(C(C)=O)c2)cc1,7%
O=C(Nc1cccc2c1C(=O)NC2=O)c1cccnc1Cl,13%
COc1ccc(CNC(=O)CCCN2C(=O)CSc3c2c(C)nn3-c2ccccc2)cc1,3%
COc1ccccc1CC(=N)N1C[C@@H]2C(=O)CCC(c3ccccc3)(c3ccccc3)[C@@H]2C1,-8%
CCN(C(=O)COC(=O)CSc1ccccc1)c1c(N)n(Cc2ccccc2)c(=O)[nH]c1=O,-9%
O=C(NN=Cc1cccc([N+](=O)[O-])c1)c1cccc2ccccc12,-10%
Cc1ccc(NC(=O)COC(=O)[C@@H]2CC(O)CN2S(=O)(=O)c2ccc3c(c2)OCCO3)cc1 (some centres not stated),-11%
Cc1ccc(OCC(=O)NNC(=O)c2cc3ccccc3o2)cc1,17%
NC(CSC1(c2ccccc2)c2ccccc2-c2ccccc21)C(=O)O (configuration not stated),?
c1ccc(-c2csc(=Nc3cccnc3)n2CC2CCCO2)cc1 (configuration not stated),-12%
C[C@@]12C(=O)N(Cc3ccccc3)CC(=O)N1[C@H]1c3cc(Cl)ccc3OC[C@@H]1[C@@H]2c1ccccc1,-15%
COc1ccc(C)cc1NC(=O)C(NCC1CCCO1)c1ccccc1 (configuration not stated),-17%
Cc1cc(C)n(-c2ccc(C(=O)Nc3ccc4c(c3)OCO4)cc2)n1,11%
CC(=O)Nc1cc(=O)c2cccnc2[nH]1,-1%
CCn1c2ccccc2c2cc(NC(=O)CSc3nnc(-c4ccccc4)o3)ccc21,2%
O=C(NCc1ccc2c(c1)OCO2)c1ccc(CSCc2ccc(Cl)cc2)o1,?
O=C(Cn1cnc2c(nnn2-c2cccc(F)c2)c1=O)Nc1ccc2c(c1)OCCO2,-2%
CC(=O)c1ccc(-c2cccc(-c3cc(=O)oc4ccc(C(C)(C)C)cc34)c2)cc1,?
CC(=O)N1c2ccc(S(=O)(=O)N3CCC(C(=O)Nc4cccc(Cl)c4)CC3)cc2CC1C (configuration not stated),14%
CCCCOCc1cc(CN2CCN(c3cccc(Cl)c3)CC2)c(O)c2ncccc12,10%
COc1ccccc1NC(=S)NCCc1ccc(S(N)(=O)=O)cc1,-11%
COc1ccccc1C(=O)Nc1ccccc1N1CCN(C(=O)c2ccc(Cl)cc2)CC1,34%[activator]
O=C(Nc1cc(C(F)(F)F)ccc1Cl)C(Sc1n[nH]c(=O)[nH]c1=O)c1ccccc1 (configuration not stated),8%
Cc1ccccc1NC(=O)Cc1nc(COC(=O)c2ccc([N+](=O)[O-])cc2)cs1,-13%
Cc1ccnc2nc(C(=O)Nc3nc4ccccc4s3)nn12,-26%
CC1CCCCC1NC(=O)Cn1ncc2ccccc21 (configuration not stated),-12%
Cc1ccccc1S(=O)(=O)N(CC(O)CN1CCCCC1)c1ccccc1 (configuration not stated),-8%
Nc1nc(-c2cccc(NS(=O)(=O)c3ccccc3)c2)cs1,-19%
CCc1nnc(NCC(=O)N2CCc3ccccc32)s1,-13%
CCCCCCn1c(N2CCCC2)nc2c1c(=O)[nH]c(=O)n2C,-20%
CNc1nc(Cl)nc2c1ncn2CC(COC(=O)C(C)(C)C)COC(=O)C(C)(C)C,-15%
